Compound activity (PubChem)
Mtb H37Rv = Mycobacterium tuberculosis H37Rv growth inhibition, cell based, confirmatory dose response (AID 1949) | actives 1.6% (n = 100,000) | one-dose inhibition, % at 10 µg/mL; IC50 in µg/mL for titrated hits | most inactive calls were filed without a number and no value below 0 was filed;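 active means confirmed in a dose series; inconclusive means about 50% or more but not retested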;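 further: bacteria grown 7 days with compound before Alamar blue readout; 0% = untreated bacteria and 100% = reference antibiotic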
An asterisk follows results filed as active; i = inactive; ? = inconclusive.

molecule	Mtb H37Rv
CCCn1c(C(C)O)nc2ccccc21 (stereo not drawn)	i
COc1cc(NC(=O)CSc2ccc(C)cc2)c(OC)cc1Cl	i
COc1cc(C(=S)N2CCN(c3ccc(F)cc3)CC2)ccc1OCc1ccccc1	i
COc1ccc(C)cc1NS(=O)(=O)c1cc(Cl)c(Cl)cc1Cl	10.9%
O=C(O)C1CCCCC1C(=O)Nc1nncs1 (stereo not drawn)	i
CCCCn1c(Cc2ccccc2)n[nH]c1=S	i
CCOc1ccccc1N(CC(=O)Nc1c(C)n(C)n(-c2ccccc2)c1=O)S(=O)(=O)c1ccc(Cl)cc1	i
Cc1[nH]c2ccc(F)cc2c1CCN	i
CCc1ccccc1N(CC(=O)N1CCN(c2ccccc2F)CC1)S(C)(=O)=O	i
O=C(OCc1ccc(Cl)cc1)c1cc(Br)ccc1O	i
Cc1nn(CC(=O)Nc2ccc(Cl)cc2)c(C)c1[N+](=O)[O-]	i
Cc1ccc(C(=O)N2CCOCC2)cc1I	i
COc1ccc(CCNC(=S)N2CCN(c3cccc(C(F)(F)F)c3)CC2)cc1OC	?
COC(C(=O)Nc1ccc(Br)c(Cl)c1)c1ccccc1 (stereo not drawn)	5.4%
COc1ccc(C(=O)COC(=O)C2CCCN2C(=O)C23CC4CC(CC(C4)C2)C3)cc1 (stereo not drawn)	i
Cc1cc(C(=O)NC(C)C2CC2)c(Cl)cc1Cl (stereo not drawn)	i
COc1ccc(-c2nc(C#N)c(N3CCCC3)o2)cc1	i
COc1ccc2[nH]cc(CCNC(=O)c3cccnc3)c2c1	i
COC(=O)c1cccc(NC(=O)c2ccccc2N(Cc2ccccc2)S(C)(=O)=O)c1C	0.6%
Clc1ccccc1Cn1nnc2ccccc21	i
CCC(C(=O)O/N=C(\N)c1ccc(OC)c(OC)c1)c1ccccc1 (stereo not drawn)	2.4%
CN(c1ccc(C(=O)N2CCCCCC2)cc1)S(C)(=O)=O	i
O=C(NCc1cccs1)c1ccc2c(c1)OCO2	i
Oc1ccc2ccccc2c1CNc1ccccn1	i
CC(C)=CCOc1cc2oc(=O)c3c(c2cc1Cl)CCC3	i

Following part.
molecule	Mtb H37Rv
CSc1ccc(NC(=O)c2sc3nc4c(cc3c2N)CCCCC4)cc1	i
COC(=O)c1c(NC(=O)c2oc3cc(C)c(C)cc3c2C)sc(C(C)=O)c1C	i
Cc1ccc2nc3c(cc(C#N)c(=N)n3Cc3cccnc3)c(=O)n2c1	i
Cc1c(C(=O)NCCN(C)C)cccc1[N+](=O)[O-]	i
O=C(NCc1cccnc1)c1ccc(-n2nc(C(F)(F)F)c3c2CCCC3)cc1	i
C=CCOc1ccc(/C=C(\C#N)S(=O)(=O)c2ccccc2)cc1OCC	i
CC(=O)Nc1sc(Cc2ccccc2)c(C)c1C(N)=O	i
O=C(CN1C(=O)c2ccccc2C1=O)N1CCN(c2ccc(F)cc2)CC1	i
CCOc1ccc(OCC)c(S(=O)(=O)N2CCN(c3cc(C)ccc3C)CC2)c1	3.3%
O=C(O)c1ccc(NCc2ccccc2)c(NC(=O)C2CCCCC2C(=O)O)c1 (stereo not drawn)	i
CCSc1ccccc1C(=O)Nc1cc(C(=O)OC)cc(C(=O)OC)c1	i
COc1ccc(C(=O)NC(=S)Nc2cc(C(=O)O)ccc2OC)cc1Cl	i
CCOC(=O)C1CCN(C(=O)CN(c2ccc(Oc3ccccc3)cc2)S(C)(=O)=O)CC1	i
O=S(=O)(Nc1ncccn1)c1ccc(NC(=S)N2CCc3ccccc3C2)cc1	i
O=C(Nc1ccc(O)cc1)N1CCOCC1	2.7%
CC(=O)c1cccc(NC(=O)Cn2nnc(-c3ccccc3F)n2)c1	i
Cc1cc(C)c(NS(=O)(=O)c2ccc(NC(=O)Nc3ccc(Cl)cc3Cl)cc2)c(C)c1	29.8%
COc1cc(C#N)cc(I)c1OC(=O)c1ccccc1C	6.2%
Cc1cccc(NC(=O)CCc2ccc(S(=O)(=O)NCC(C)C)cc2)c1C	i
CCCC(=O)Nc1ccc(S(=O)(=O)Nc2ccc(OCC)cc2)cc1	1.0%
Cc1ccc(C)c(OCC(=O)Nc2ccc(O)cc2)c1	i
COc1ccccc1Cn1c(NCC(C)O)nc2c1c(=O)n(C)c(=O)n2C (stereo not drawn)	i
O=C(Nc1ccc(Cl)c(C(F)(F)F)c1)c1ccc(Cl)c(S(=O)(=O)N2CCOCC2)c1	i
Cc1cc(NS(=O)(=O)c2ccc(NC(=O)C(C)Oc3ccc(F)cc3)cc2)nc(C)n1 (stereo not drawn)	i
S=C(Nc1ccc2nc(-c3ccco3)c(-c3ccco3)nc2c1)N1CCN(c2ccccn2)CC1	0.9%

Other structures
molecule	Mtb H37Rv
CN1CCC(NC(=S)NC2CC2)CC1	i
CC(Sc1ccc(Cl)cc1)C(=O)Nc1ccc2c(c1)OCO2 (stereo not drawn)	i
COC(=O)c1sc(NC(=O)COc2cc(C)ccc2Cl)c(C#N)c1C	i
NC(=O)c1ccc(NC(=O)C2CC2)cc1	i
Cn1nc([N+](=O)[O-])nc1Sc1n[nH]c(-c2ccccc2)n1	i
COc1cc(NC(=S)N2CCN(C/C=C/c3ccccc3)CC2)c(OC)cc1Cl	34.8%
COC(=O)c1cc(NC(=S)NCCc2ccccc2)cc(C(=O)OC)c1	i
O=S(=O)(c1cc(-c2nnc(-c3ccc(Br)cc3)o2)ccc1Cl)N1CCCCC1	i
Cc1ccc(S(=O)(=O)Cc2ccccc2F)cc1	i
CC(=O)Nc1ccc(OC(=O)c2ccc(-c3nnc(-c4ccccc4)o3)cc2)cc1	i
COc1cccc(Oc2coc3cc(OC)ccc3c2=O)c1	1.9%
COc1cc([N+](=O)[O-])ccc1NC(=S)N1CCN(S(C)(=O)=O)CC1	i
CN1CCC(OC(=O)c2ccccc2I)CC1	i
CNC(=O)CN(C#N)c1nc(N(C)C)nc(N(C)C)n1	i
Cc1cc(C)cc(C(=O)NC(=S)Nc2ccc3c(c2)Cc2ccccc2-3)c1	3.4%
COc1ccc(CC(=O)Nc2ccc(Br)cc2C(C)C)cc1	5.0%
COc1cccc(OC)c1C(=O)Nc1cccc(-c2nc3ccccc3o2)c1	i
COc1ccc(C2(c3ccc(OC)cc3)CCCC2)cc1	6.1%
CCOC(=O)c1ccc(NC(=O)c2c(NC(=O)CN3CCOCC3)sc3c2CCC3)cc1	0.4%
COc1ccc(C(=O)NC(=S)Nc2ccccc2C(N)=O)cc1[N+](=O)[O-]	i
O=C1CC(N2CCC(c3nc4ccccc4o3)CC2)C(=O)N1c1ccc(Cl)c(C(F)(F)F)c1 (stereo not drawn)	i
COCc1nnc(NC(=O)Cc2c(F)cccc2Cl)s1	2.0%
CCOC(=O)c1ccc(NC(=S)NCCn2cc(Br)cn2)cc1	i
CC1=NN(c2ccccc2)C(=O)/C1=C/c1ccc(Br)c([N+](=O)[O-])c1	i
CN(C)c1ccc(NC(=O)c2ccccc2Br)cc1	i

Filtered by structure, the compounds so far with a thiophene ring, fused or not
molecule	Mtb H37Rv
O=C(NCc1cccs1)c1ccc2c(c1)OCO2	i
CSc1ccc(NC(=O)c2sc3nc4c(cc3c2N)CCCCC4)cc1	i
COC(=O)c1c(NC(=O)c2oc3cc(C)c(C)cc3c2C)sc(C(C)=O)c1C	i
CC(=O)Nc1sc(Cc2ccccc2)c(C)c1C(N)=O	i
COC(=O)c1sc(NC(=O)COc2cc(C)ccc2Cl)c(C#N)c1C	i
CCOC(=O)c1ccc(NC(=O)c2c(NC(=O)CN3CCOCC3)sc3c2CCC3)cc1	0.4%

Continued:
molecule	Mtb H37Rv
NS(=O)(=O)c1ccc(Nc2ncccc2[N+](=O)[O-])cc1	i
Cc1ccc(C(=O)NC(=S)Nc2cc(C(=O)O)ccc2C)c(Cl)c1	5.0%
Cc1[nH]nc(-c2ccc(O)cc2O)c1Oc1cccc(-c2ccccc2)c1	3.2%
CC(C)OC(=O)c1cn(-c2ccccc2)nc1-c1ccco1	7.1%
COc1ccc(N2C(=O)CC(NCc3cccc(C(F)(F)F)c3)C2=O)cc1 (stereo not drawn)	i
CCOC(=O)C1=C(c2ccccc2)NC(=S)NC1c1ccccc1OCC(=O)Nc1ccccc1 (stereo not drawn)	5.5%
COc1ccc(OCCC(=O)Nc2nc3cc(OC)ccc3s2)cc1	i
Cc1cc(C)c(NC(=O)c2cc(C)ccc2C)c(C)c1	22.0%
CN1CCN(C2CC(=O)N(c3ccc4c(c3)OCCO4)C2=O)CC1 (stereo not drawn)	i
Cc1ccc(C)c(C(=O)N2CCOCC2)c1	i
O=C(Nc1ccc(F)c(Cl)c1)Nc1ccc(Br)cn1	1.1%
Cc1ccc(NC(=O)Cn2c(C)nc3ccccc32)cc1	i
COC(=O)c1sccc1NC(=O)c1cc(C)on1	i
Cc1ccc(CN(CC(=O)NC(C)c2ccccc2)S(=O)(=O)c2ccccc2)cc1 (stereo not drawn)	7.9%
COc1ccc2nc(NCc3ccncc3)sc2c1	i
COc1ccc(Br)cc1S(=O)(=O)Nc1ccccn1	i
Oc1ccccc1-c1nc2cc3ccccc3cc2nc1-c1ccccc1	1.5%
CCOC(=O)C1=C(C)N=C2SC(C(=O)OC)=CC(=O)N2C1c1cccc(OC)c1 (stereo not drawn)	i
Cc1ccc(NC(=O)C2C3C=CC(C3)C2C(=O)O)cc1NC(=O)c1ccc(Cl)cc1 (stereo not drawn)	i
CN(C)S(=O)(=O)N1CCN(C(=O)c2ccccc2)CC1	i
CCN(CC)S(=O)(=O)c1cc(C(=O)Nc2ccc(Cl)cn2)ccc1C	1.3%
CC(C)C(=O)Nc1cccc(C(=O)NC(c2ccccc2)c2ccccc2)c1	1.7%
O=C(Nc1ccccc1I)c1cnccn1	3.8%
Cc1cccc(NS(=O)(=O)c2ccc(C3CCCCC3)cc2)n1	i
CC1(C)Cc2c(c(N3CCOCC3)nc3sc4c(N5CCCCC5)ncnc4c23)CO1	i

Carrying on.
molecule	Mtb H37Rv
Cc1cc(C(=O)Nc2ccc(Br)cc2)cs1	i
Cc1ccc(NC(=O)CN2CCOCC2)c(Br)c1	5.1%
Cc1sc2nc(SCC(=O)N3CCOCC3)n(Cc3ccccc3)c(=O)c2c1C	0.9%
CC(C)CC(=O)NC(=S)Nc1ccc(NC(=O)C(C)C)cc1	i
Nc1c(C(=O)C23CC4CC(CC(C4)C2)C3)sc2nc3c(cc12)CCC3	i
Cc1cn(S(=O)(=O)c2ccc(Br)c3ccccc23)cn1	1.0%
COc1cc(/C=C/c2nc3ccc(Br)cc3c(=O)n2-c2ccccc2)ccc1O	i
CC1(C)CC(=O)C2=C(C1)Nc1ccccc1NC2c1cc2c(cc1Br)OCO2 (stereo not drawn)	i
O=C1C2C3CCC(C3)C2C(=O)N1Cc1ccco1 (stereo not drawn)	i
CCOc1ccccc1N1CCN(C(=S)Nc2sc(CC)cc2C(=O)OC)CC1	27.0%
CC1CCC(N2CCC(N3CCN(c4ccccc4F)CC3)CC2)CC1 (stereo not drawn)	1.4%
COc1cccc(NC(=O)CSc2nnc(-c3cccc(C)c3)n2C)c1	i
CCOC(=O)c1cnc2c(CC)cccc2c1NCc1ccco1	5.1%
Cc1cccc(-c2nc(N3CCCC3)c3ccccc3n2)c1	i
COc1ccc(OC)c(NC(=O)c2ccc(N(Cc3ccccc3C)S(C)(=O)=O)cc2)c1	i
O=C(NCCc1ccccc1)c1cc(Br)ccc1Cl	4.3%
Cc1ccc(CC(=O)Nc2cccc(I)c2)cc1	i
CN(Cc1ccccc1)S(=O)(=O)c1ccc(NC(=O)c2sc3ccccc3c2Cl)cc1	i
O=S(=O)(Nc1nc2ccccc2nc1Nc1cccc(F)c1)c1ccccc1	i
O=C(CC1SCCNC1=O)Nc1cc(Cl)cc(Cl)c1 (stereo not drawn)	i
COC(=O)C1NC(c2ccc(F)cc2)(c2ccc(F)cc2)C2C(=O)N(Cc3ccc(Cl)cc3)C(=O)C12 (stereo not drawn)	5.4%
CCOc1ccc(NC(=O)C2CCC(N3C(=O)C4C5CCC(C5)C4C3=O)CC2)cc1 (stereo not drawn)	i
O=C(CN1C(=O)C2C3CCC(C3)C2C1=O)Oc1ccccc1-c1ccccc1 (stereo not drawn)	i
CCN(CC)CCNc1nc(C)cc(C)n1	i
CCN(CC)c1ccc(C(=O)NNC(=O)Nc2ccc(F)cc2F)cc1	i

The results go on:
molecule	Mtb H37Rv
CCOC(=O)c1ccccc1NC(=O)CCOc1ccccc1	14.9%
Cc1cccc(-n2ncc3c(N4CCN(c5ccccc5Cl)CC4)ncnc32)c1	i
C=COCCNC(=O)C(=O)Nc1ccc(C)cc1C	i
O=C(NCCN1CCOCC1)C1CCN(Cc2cccs2)CC1	i
O=C(c1ccccc1Br)c1cc2c(cc1[N+](=O)[O-])OCCO2	i
CN(C(=O)Oc1ccc(C(C)(C)C)cc1)c1ccccc1	4.5%
Cc1ccc(S(=O)(=O)N(CC(=O)N2CCC(C(N)=O)CC2)c2cc(Cl)cc(Cl)c2)cc1	1.6%
C=CCn1c(SCC(N)=O)nnc1-c1cc(Br)ccc1O	i
Cc1ccc(NC(=O)C2(C)CC2(Cl)Cl)nc1 (stereo not drawn)	0.1%
CCOC(=O)Oc1ccc2c(-c3ccccc3)cc(=O)oc2c1C	i
CN(C)CCCOc1ccccc1I	i
CCc1ccccc1-n1c(-c2ccc(C(C)(C)C)cc2)n[nH]c1=S	4.9%
CCOc1ccc(C(C)NC(=O)C(C)Cc2ccccc2)cc1 (stereo not drawn)	0.5%
O=C(NCCc1ccccc1)c1ccc(NC(=O)c2cccnc2)cc1	i
O=C(CCn1nc(-c2ccccc2)c2ccccc2c1=O)NCc1cccnc1	i

Some of the compounds tested; rates above refer to the full screens.
